Source: PubChem (Vanderbilt University)
GIRK2 activ: activators of human GIRK2 potassium channels; 63,000 tested, 0.05% active; HEK293-GIRK2 thallium flux, Thallos fluorescence; AID 1259325, 2017; G protein-activated inward rectifier potassium channel 2 (Homo sapiens), P48051; calls only for hits at 25 µM;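 active = among the strongest 0.2% of first-round signals and kept after retests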;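 note: first round at about 10 µM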
Target sequence (P48051 whole entry, looked up): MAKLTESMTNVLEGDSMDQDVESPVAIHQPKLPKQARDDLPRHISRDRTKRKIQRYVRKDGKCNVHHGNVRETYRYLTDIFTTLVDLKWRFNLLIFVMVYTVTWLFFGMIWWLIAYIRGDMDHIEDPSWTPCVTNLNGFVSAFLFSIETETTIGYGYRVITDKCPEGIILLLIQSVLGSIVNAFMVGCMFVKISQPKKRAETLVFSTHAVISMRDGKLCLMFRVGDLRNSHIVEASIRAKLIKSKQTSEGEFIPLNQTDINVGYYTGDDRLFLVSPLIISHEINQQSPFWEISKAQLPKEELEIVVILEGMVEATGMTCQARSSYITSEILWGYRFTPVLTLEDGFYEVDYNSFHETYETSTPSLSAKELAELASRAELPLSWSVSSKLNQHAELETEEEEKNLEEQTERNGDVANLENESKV
Calls only; i = inactive. These rows are one share of the data (hit frequency here may not be typical).

SMILES	GIRK2 activ
CCCCCC(=O)OC[C@H](CO)OC(=O)CCCC	i
Cc1cc(S(=O)(=O)NCC2CCN(C(=O)c3ccoc3)CC2)c(Cl)cc1Cl	i
Cc1nc(SCc2ccccc2F)[nH]c(=O)c1CC(=O)N1CCc2ccccc21	i
NC(=O)Cc1ccc(NC(=O)c2cc3ccccc3oc2=O)cc1	i
Cc1nc2cc(NC(=O)C3CCCN(Cc4nc(-c5cccs5)no4)C3)ccc2s1 (configuration not stated)	i
COc1ccccc1N1CC(C)Cn2c1nc1c2c(=O)n(CCc2ccccc2)c(=O)n1C (configuration not stated)	i
COc1ccc(NC(=O)C23CC4CC(C2)CC(C(=O)Nc2ccc(OC)c(OC)c2)(C4)C3)cc1OC	i
CCCn1c(=O)c2c(nc3n2CCCN3c2ccc(CC)cc2)n(C)c1=O	i
CCCOc1cccc(C2C(C(=O)c3cccs3)=C(O)C(=O)N2c2cc(C)on2)c1 (configuration not stated)	i
O=C(NC1CC(=O)N(C2CC2)C1)c1cc2ccccc2s1 (configuration not stated)	i
O=C(NCC#CCN1CCOCC1)Nc1ccccc1C(F)(F)F	i
Cc1nc(-c2ccco2)sc1CNS(=O)(=O)c1ccccc1C(F)(F)F	i
Cc1ccc(S(=O)(=O)Nc2ccc3c(c2)N(C(=O)c2ccccc2)CCC3)cc1	i
O=C(Nc1ccc(-c2cnc3n2CCC3)cc1)c1ccccn1	i
Cc1ccccc1CSc1cc(C(C)C)ncn1	i
O=C1/C(=C/c2ccncc2)Oc2cc(OC(=O)C3CCCCC3)ccc21	i
CCCn1nc(-c2ccccc2)c2sc(N3CCCCC3)nc2c1=O	i
CCOc1ccc(-c2nc(N)ncc2-c2ccccc2OC)c(O)c1	i
Cn1nnn(-c2ccc(NC(=O)C3(c4cccs4)CCCC3)cc2)c1=O	i
CC12CC3CC(C1)CC(CC(=O)NNC(N)=O)(C3)C2	i
CCn1ccc(C(=O)N(CCCN2CCOCC2)c2nc3c(F)cc(F)cc3s2)n1	i
CCCc1cc(C(=O)OC)c(N2C(=O)C=CC2=O)s1	i
NCC(c1cccs1)S(=O)(=O)c1ccc(Cl)cc1 (configuration not stated)	i
COc1ccc(CC(=O)N(Cc2cccs2)Cc2cccn2C)cc1OC	i
CC(=O)N1CCN(C(=O)C(NC(=O)c2ccccc2Cl)S(=O)(=O)c2ccccc2)CC1 (configuration not stated)	i
COc1ccc(S(=O)(=O)N2CCCOC2CNC(=O)C(=O)NC(C)C)cc1OC (configuration not stated)	i
Cc1cccc(-n2c(C)cn3c4c(=O)n(CC(N)=O)c(=O)n(C)c4nc23)c1	i
O=C(Nc1ccc(Cl)cc1-c1nc2ccccc2[nH]c1=O)c1cccs1	i
Nc1c(-c2ccccn2)nsc1C(=O)N1CCN(Cc2ccc3c(c2)OCO3)CC1	i
Cc1cccc(Cn2c(=O)c3c(nc4n(CCCl)c(C)c(C)n34)n(C)c2=O)c1	i
O=C(Nc1nc(C(=O)NCCc2ccc(F)cc2)co1)c1ccsc1	i
Cc1ccc(Cl)cc1NC(=O)CN1N=NC2C(=O)N(c3ccc(Br)cc3)C(=O)C21 (configuration not stated)	i
COc1cccc(NC(=O)NCCNc2ccc(C)nn2)c1	i
CCc1ccccc1NC(=O)COc1cc(-n2cccn2)nc(C)n1	i
COc1cccc(OC)c1C(=O)Oc1ccc(/C=C/c2ccncc2)cc1	i
COc1cccc2sc(N(C)CC(=O)NC3CCN(Cc4ccccc4)CC3)nc12	i
COc1ccc(C(=O)N2CCOCC2CN(C)C)c(OC)c1 (configuration not stated)	i
CCOC(=O)CN1CCN(Cc2nc3ccccc3n2C)CC1	i
COc1cccc(/C=C2/SC(=S)N(c3ccc4c(c3)OCO4)C2=O)c1OC	i
O=C(Cn1nc(N2CCOCC2)c2ccccc2c1=O)Nc1ccc2c(c1)OCCO2	i
Cc1nnc(NC(=O)CSc2nnc(CCc3nc4ccccc4[nH]3)o2)s1	i
Cc1nc(C)c(C(=O)NCCOc2ccc(-c3ccccn3)nn2)s1	i
CCN(CC)C(=O)Cn1cc(C(=O)C(=O)N(Cc2ccccc2)C(C)C)c2ccccc21	i
O=C(c1cc(-n2cccn2)ccn1)N1CCn2c1nc1ccccc12	i
O=C(c1csc(-c2cnccn2)n1)N1CCN(c2cccc(C(F)(F)F)c2)CC1	i
COc1ccc(-c2nc(C#N)c(N3CCN(C(=O)c4cccs4)CC3)o2)cc1OC	i
Cc1ccccc1-c1ccc(N2CCN(C(=O)COc3ccc4c(c3)OCO4)CC2)nn1	i
O=C(Nc1ccc2c(c1)C(=O)NCC2)Nc1ccccc1F	i
CSc1ccc(C2C3C(=O)NC(=O)C3ON2c2ccccc2)cc1 (configuration not stated)	i
COCC(=O)NCC1CCN(Cc2ccccc2)CC1	i
CC(C)(C)C(=O)NCCn1ccc(-c2ccccn2)n1	i
CCOc1ccccc1NC(=O)CN1CCC2(CC1)N=C(c1ccc(OC)cc1)C(=O)N2	i
O=S(=O)(/C=C/c1ccccc1)N1CCOC(Cc2ccccc2)C1 (configuration not stated)	i
COCCNC(=O)N(Cc1ccsc1)CC(F)(F)F	i
CC(C)(C)NC(=O)NCCC1CCCCN1S(=O)(=O)c1ccccc1 (configuration not stated)	i
O=C(C1=Cc2ccccc2OC=C1)N1CCc2ccccc2C1	i
COc1ccc(CNC(=O)Nc2nnc(-c3cc(C)ccc3C)o2)cc1OC	i
C#CCCNC(=O)c1ccc2[nH]ccc2c1	i
Cn1nc(-c2ccc(NC(=O)c3ccc4c(c3)OCO4)cc2)ccc1=O	i
O=C(NCCC(O)c1ccccc1)C(=O)Nc1cccc(C(F)(F)F)c1 (configuration not stated)	i
Other compounds:
SMILES	GIRK2 activ
Cc1cc(NC(=O)CSc2ccc(-c3nc(C4CC4)no3)cn2)ccc1F	i
Cc1oc(-c2cccc(Cl)c2)nc1Cn1nnc(C(=O)Nc2cccc(Cl)c2)c1N	i
CC1CCCN(S(=O)(=O)c2cc3cc(Br)ccc3oc2=O)C1 (configuration not stated)	i
O=C(COc1ccc(Cl)cc1Cl)NC1CC(=O)N(C2CC2)C1 (configuration not stated)	i
CC(Cc1cccs1)NS(=O)(=O)c1ccc(Cl)s1 (configuration not stated)	i
COC(=O)c1ccc2c(=O)n(-c3ccccc3)c(N3CCSC3)nc2c1	i
CC1CCCCC12NC(=O)N(CC(=O)Nc1ccc([N+](=O)[O-])cc1)C2=O (configuration not stated)	i
O=C1CCc2cc(S(=O)(=O)Nc3ccc(OC(F)(F)F)cc3)cc3c2N1CCC3	i
CN(C)CC1CSCCCN1S(=O)(=O)C1CC1 (configuration not stated)	i
COc1ccc(Cl)cc1NC(=O)N1CCC(c2nnc(-c3ccco3)s2)CC1	i
COc1ccc(-c2noc(Cc3nnc(-c4ccc(C)c(F)c4)o3)n2)cc1	i
Cc1csc(C(=O)NCCC(O)c2ccoc2)c1 (configuration not stated)	i
Cc1cccc(C)c1NC(=O)Cn1c(C)cc(C)c(-c2nc(-c3ccc(F)cc3)no2)c1=O	i
Nc1[nH]c(=O)ncc1F	i
COc1ccc(C(=O)NCCS(=O)(=O)NCc2ccccc2OC)cc1	i

Part of the list above, bar-delimited.
structure | GIRK2 activ
O=C(COc1ccc(Cl)cc1Cl)NC1CC(=O)N(C2CC2)C1 (configuration not stated) | i
CC(Cc1cccs1)NS(=O)(=O)c1ccc(Cl)s1 (configuration not stated) | i
COC(=O)c1ccc2c(=O)n(-c3ccccc3)c(N3CCSC3)nc2c1 | i
CC1CCCCC12NC(=O)N(CC(=O)Nc1ccc([N+](=O)[O-])cc1)C2=O (configuration not stated) | i
O=C1CCc2cc(S(=O)(=O)Nc3ccc(OC(F)(F)F)cc3)cc3c2N1CCC3 | i

Remaining list, next part.
SMILES	GIRK2 activ
NC(=O)c1cnccn1	i
Nc1c(C(=O)Nc2ccc(Cl)cc2)nnn1Cc1cccc(Br)c1	i
Cc1ccc(C2CC3C4NN=C(CCC(=O)NCCCc5ccccc5)N4C=CN3N2)cc1C (configuration not stated)	i
Cc1cc(C)c2c(CN3CCN(c4ccccc4F)CC3)cc(=O)oc2c1	i
COCCCn1c(-c2ccc(OC)cc2)nc2c(c(=O)c3ccccc3n2C)c1=O	i
COC(=O)c1ccc2c(=O)n(CCC(=O)N3CCN(c4ccccc4F)CC3)c(=S)[nH]c2c1	i
CSc1ccc(CNC(=O)COc2cc(C)nc(N3CCCCCC3)n2)cc1	i
c1ccc2[nH]c(CN3CCC(Cn4cnc5ccccc54)CC3)nc2c1	i
CCCCCCCC/C=C\C/C=C\C/C=C\CCCC(=O)O	i
COc1cccc(NC(=O)Nc2ccc3c(c2)CCCN3C(=O)C2CC2)c1OC	i
COCCn1c(N2CCN(Cc3ccc(Br)cc3)CC2)nc2c1c(=O)[nH]c(=O)n2C	i
Cc1oc2c3c(ccc2c(=O)c1-c1ccccc1)OCN(CC1CCCO1)C3 (configuration not stated)	i
O=S(=O)(NCC1CCCO1)c1ccc(Cl)c(C(F)(F)F)c1 (configuration not stated)	i
O=C(CSC1=NNC2C3CC(c4ccc(F)cc4)NN3C=CN12)Nc1ccc2c(c1)OCO2 (configuration not stated)	i
Cn1nc(CNC(=O)C(C)(C)Oc2ccc(Cl)cc2)cc1-c1ccco1	i

Structural class: the entries above containing an aryl thioether with sulfur outside any ring.
SMILES	GIRK2 activ
Cc1nc(SCc2ccccc2F)[nH]c(=O)c1CC(=O)N1CCc2ccccc21	i
Cc1ccccc1CSc1cc(C(C)C)ncn1	i
Cc1nnc(NC(=O)CSc2nnc(CCc3nc4ccccc4[nH]3)o2)s1	i
CSc1ccc(C2C3C(=O)NC(=O)C3ON2c2ccccc2)cc1 (configuration not stated)	i
Cc1cc(NC(=O)CSc2ccc(-c3nc(C4CC4)no3)cn2)ccc1F	i
CSc1ccc(CNC(=O)COc2cc(C)nc(N3CCCCCC3)n2)cc1	i

(listing goes on)
SMILES	GIRK2 activ
CCCCCC(=O)OC1C=C2COC(O)C2(O)C2(C)C(O)CCC(C)(C)C12 (configuration not stated)	i
COCCn1c(SCc2nc(-c3ccc4c(c3)OCO4)no2)nc2cc3c(cc2c1=O)OCO3	i
COc1ccccc1OCC#CCNC(=O)c1cccc(C#N)c1	i
Cn1cc(C(=O)NCc2ccccc2F)nn1	i
Cn1c(CN2CCN(S(=O)(=O)c3ccc4c(c3)OCCO4)CC2)nc2ccccc21	i
Cc1cccc(C)c1NC(=O)Cn1cnc2c(-c3ccc(Cl)cc3)csc2c1=O	i
CCOc1ccc(-c2cc3c(=O)n(CC(=O)NCc4ccc(C)cc4)ccn3n2)cc1	i
O=C(CSc1nc2ccccc2o1)NCCn1nc(-c2ccco2)ccc1=O	i
C#CCn1c(=NC(=O)c2ccn(C)n2)sc2cc(Cl)ccc21	i
COc1cccc(CC(=O)N2CCOCC2CO)c1 (configuration not stated)	i
Cc1ccc2nc(NS(=O)(=O)c3cn(C)nc3C)sc2c1	i
CS(=O)(=O)NCC1CCC(C(=O)NCc2ccco2)CC1 (configuration not stated)	i
CCOC(=O)CCC(=O)N1CCC(Cn2ccnc2C)CC1	i
COC(=O)c1ccc(C(=O)NCC2CCN(Cc3cc(C)oc3C)CC2)cc1	i
COCc1c(-c2nnc(-c3cccnc3)o2)nnn1-c1ccc(Cl)cc1	i
Cc1c(C)n2c3c(=O)n(CC(N)=O)c(=O)n(C)c3nc2n1-c1ccccc1Cl	i
O=C(COc1ccc(Cl)cc1)NCCCS(=O)(=O)N1CCN(c2ccccn2)CC1	i
CCC(C(=O)Nc1cccc2ccc(OC)nc12)c1ccccc1 (configuration not stated)	i
CCN(CC)CCN1C(=O)C(=O)C(=C(O)c2ccncc2)C1c1ccc([N+](=O)[O-])cc1 (configuration not stated)	i
Cc1cc(OCC(=O)NCCn2ncccc2=O)cc(C)c1Cl	i
CN(c1ccsc1C(=O)NCCc1cccs1)S(=O)(=O)c1ccc(Cl)cc1	i
COC(=O)CN(C)C(=O)NC12CC3CC(CC(C3)C1)C2	i
CCOC(=O)c1sc(NC(=O)NC(C)(C)C)nc1C	i
COCCN(Cc1ccncc1)C(=O)C1CCCC1	i
COc1ccc(C(=O)Nc2ccc(S(=O)(=O)N3CCCCC3)cc2)cc1Br	i
CCc1c(C)nc2n(c1=O)CC(C(=O)Nc1ccc(-n3cnnn3)cc1)CS2 (configuration not stated)	i
COc1ccc(Br)cc1-c1nc(CSc2nc(-c3ccncc3)cc(=O)[nH]2)c(C)o1	i
O=S(=O)(NCCOc1ccccc1)c1ccccc1	i
COc1cc(NC(=O)CSc2ncnc3nc(N4CCc5ccccc5C4)sc23)cc(OC)c1	i
NC(=O)c1ccccc1OCC#CCNC(=O)/C=C/c1ccco1	i
COc1cccc2sc(OC3CN(S(=O)(=O)Cc4ccc(F)cc4)C3)nc12	i
Cn1c(SCCCNc2ccc(S(C)(=O)=O)cc2[N+](=O)[O-])nnc1-c1cccs1	i
CCCCCCCCCCCCCCC(=O)N[C@H]1CCOC1=O	i
Cc1nc2cc(Cl)ccc2o1	i
Cc1c(-c2ccc(Cl)cc2)c(=O)oc2c3c(ccc12)OCN(CCCN1CCOCC1)C3	i
CCCS(=O)(=O)N1CCCc2ccc(NS(=O)(=O)c3ccc(OCC)cc3)cc21	i
O=C(c1nnn(-c2ccc(Br)cc2)n1)N1CCN(CCc2ccccc2)CC1	i
COc1ccc(OCC(=O)Nc2nonc2-c2ccc(Cl)cc2)cc1	i
Cc1cc(C)n(-c2nc(CCNC(=O)Nc3cccc(C(F)(F)F)c3)cs2)n1	i
CS(=O)(=O)N1CCC(C(=O)Nc2nnc(C3CC(=O)N(c4ccccc4)C3)o2)CC1 (configuration not stated)	i
